NPYLR7 agonist: activates Aedes aegypti NPYLR7 receptor. HEK293T NPYLR7/Galpha15, GCaMP6s calcium fluorescence. activation, % at 10 µM. hit rate 0.15% among 270,000; in the data active = activation above about 40%;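 also: 0% = vehicle and 100% = reference agonist at the receptor; some compounds past the cut are filed as inactive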
NPYLR7 agonist max-min: further read-out of NPYLR7 agonist, marked with its call; activation, %; measured here: Max-Min RFU normalised activation; some inactives read as strong as hits;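 span of the calcium signal over five minutes; 0% = vehicle and 100% = native peptide agonist; compound fluorescence can raise it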
* hit, by the source's call.

SMILES	NPYLR7 agonist	NPYLR7 agonist max-min
COC(=O)c1cc(Cl)c2c(c1)CC(CNC(=O)c1ccc(Cl)cc1Cl)O2 (stereo not given)	28	18
CC(C)N(Cc1cccc(Cl)c1)Cc1cnn(C)c1	-2	6
O=C1C(C(c2cccc(Cl)c2)N2CCC3(CC2)OCCO3)Sc2nc(-c3ccco3)nn21 (stereo not given)	-4	-8
CCCc1[nH]nc2c1C(c1c(F)c(F)c(F)c(F)c1F)C(C#N)C(=N)O2 (stereo not given)	2	-1
CC1ON=C(C2CC2)N(Cc2cccc(F)c2)C1=O (stereo not given)	7	4
COC(=O)CCCC(=O)N1CCC(CCc2ccc(-c3ccccc3)cc2)CC1	2	8
O=C(CN1CCCCC1)NCC1CCN(Cc2ccccn2)CC1	0	-8
CCOC(=O)C1CCCN(C(=O)c2nn(-c3ccc(OC)cc3)c(=O)n(Cc3cccc(OC)c3)c2=O)C1 (stereo not given)	8	5
Cc1c(C#N)sc(N)c1C#N	2	10
Cc1sc2nc(C(C)C)nc(N3CCN(C(=O)NC4CCCCC4)CC3)c2c1C	-7	6
O=C(NCCn1cccn1)c1ccc(CC2CCCNC2)cc1 (stereo not given)	1	4
COc1cccc(C(=O)NCC2CCCN(C(=O)c3cnsn3)C2)c1OC (stereo not given)	11	1
CCOC(=O)CCNC(=O)N1CCC(CCC(=O)Nc2cccc(OC)c2)CC1	2	2
Cc1cc(C(C)(C)C)cc(C)c1CCNC(=O)Cn1cc(C#N)c(=O)c2ccccc21	-1	-5
CCOCCn1c(=O)c2c(nc3n(CCc4ccccc4)c(C)cn23)n(C)c1=O	4	-3
Cn1cc(OCc2ccccc2)c(=O)cc1C(=O)NCc1ccc(S(N)(=O)=O)cc1	5	2
COc1ccc(C2(C(=O)N3CCCC(O)(CN(C)C)C3)CCCC2)cc1 (stereo not given)	-5	-10
Cc1ccc(CSc2ccc(-c3ccccn3)nn2)cc1	9	-2
COc1ccccc1NC(=O)C(C)S(=O)(=O)Cc1cc(=O)n(C)c(=O)n1C (stereo not given)	13	7
CCOc1ccc(CC(=O)Nc2c(C)nc3ccc(C)cn3c2=O)cc1	3	1
CC(C(=O)c1ccc(Cl)cc1Cl)n1c[n+](N)cn1 (stereo not given)	-10	-7
CC(=O)c1ccc(-c2ccc(Br)s2)cc1	1	-8
O=C(Nc1ccc(-c2nc3ccccc3o2)cc1)c1ccccc1Br	-6	-13
CCOc1ccc(-c2ccc(=O)n(CCNS(=O)(=O)c3ccccc3C(F)(F)F)n2)cc1	-1	-3
C=CCNC(=O)C(NC(=O)c1cccc(C)c1)C1CCN(C(=O)CCc2ccccc2)CC1 (stereo not given)	-4	-8
Cc1ccccc1C(=O)Nc1c2c(nn1C(C)(C)C)CS(=O)C2 (stereo not given)	5	3
CCCn1cc(C(=O)N2C[C@H]3CC=CC[C@H]3C2)c(C)n1	8	6
CN(C(=O)c1ccc(OC(F)F)cc1)c1nc2ccccc2o1	6	5
O=C1C2C3C=CC(C3)C2C(=O)N1c1cc(Cl)ccc1O (stereo not given)	-11	-12
Cc1cn2c3c(=O)n(C)c(=O)n(C)c3nc2n1Cc1c(F)cccc1Cl	-1	11
COc1cc(C(=O)Nc2cc(=O)n(C)c(=O)n2C)cc(OC)c1OC	8	10
CN(C)S(=O)(=O)c1c[nH]c(C(=O)NCc2cccs2)c1	-11	-8
CNc1cncc(-c2ccccc2F)n1	6	4
CCC1CN(Cc2nc(Cc3ccccc3)no2)CCN1CCOC (stereo not given)	-1	5
Cc1ccc(C2c3c(oc4cc(C)c(C)cc4c3=O)C(=O)N2c2nccs2)cc1 (stereo not given)	6	3
O=[N+]([O-])c1c(Cl)ncnc1N1CCCCC1CO (stereo not given)	14	5
Cn1nc(N)c2c1NC(=O)CC2c1ccco1 (stereo not given)	1	-2
COc1cn(CC(=O)Nc2cc(C)cc(C)c2)c(CSc2nc(C)cs2)cc1=O	-3	-9
CCN(CC1CCOC1)C(=O)NCC1CCS(=O)(=O)C1 (stereo not given)	4	2
CCc1ccc(N=Nc2sc3nc4c(c(=O)n(C)c(=O)n4C)n3c2O)cc1	2	1
O=[N+]([O-])c1ccc(Sc2nc3ccccc3s2)nc1	6	4
CCc1cc2c(SCC(=O)NC(C)C)ncnc2s1	2	-3
CCn1ncc(S(=O)(=O)N2CCC3(CCC(=O)N(C)CC3)CC2)c1C	2	-2
CCOC(=O)c1nn(-c2ccc(C)cc2)c(=O)cc1OS(=O)(=O)c1c(C)cc(C)cc1C	0	5
Cc1csc(NC(=O)C(=O)N2CCN(C)C3(CCN(C)CC3)C2)n1	21	10
CCOC(=O)C1CCCN(C(=O)c2cccc(Nc3c(Oc4ccc(F)cc4F)cnn(C)c3=O)c2)C1 (stereo not given)	2	12
COc1ccc(C(=O)Nc2ccnn2C2CCN(Cc3cn(C)nc3C)CC2)cc1	2	1
CC(C)CN1CCC(NCc2ccccc2-n2ccnc2)CC1	-10	-14
CC(C)(C)C1CC=C2C(C#N)C(=N)C(C#N)(C#N)C(c3c[nH]c4ccccc34)C2C1 (stereo not given)	3	0
O=C(Nc1ccc(N2CCN(C(=O)C3COc4ccccc4O3)CC2)nc1)c1ccc(F)cc1 (stereo not given)	2	14
O=C(C1=Cc2ccccc2OC1)N1CCN(S(=O)(=O)c2ccccc2Cl)CC1	-2	-3
CC(NC(=O)c1cc2ccccc2o1)C1CC2CCC1C2 (stereo not given)	0	-3
Cc1cccn2c(NC(C)(C)CC(C)(C)C)c(-c3cccc(OC(=O)c4ccc(Br)cc4)c3)nc12	12	17
CN(CCc1ccccn1)C(=O)c1ccc(C#CC(C)(C)O)o1	-4	-6
CC(C)NC(=O)CN1CCN(C(=O)CCN2C(=O)CCNC2=S)CC1	-2	-5
CN(C)CCN(C(=O)CCCS(=O)(=O)c1ccccc1)c1nc2ccc(Cl)cc2s1	0	1
CC(=O)Nc1ccsc1-c1nc(CC2CCN(C)CC2)no1	3	1
COc1cc(CC(=O)O)ccc1O	-6	5
Cc1ccc(S(C)(=O)=O)cc1NC(=O)c1ccc(S(=O)(=O)N2CC(C)OC(C)C2)cc1 (stereo not given)	7	6
O=C(CC(c1ccccc1)c1ccccc1)NCCn1ncccc1=O	2	0

Continuation.
SMILES	NPYLR7 agonist	NPYLR7 agonist max-min
CN(C)S(=O)(=O)c1ccc(=O)n(CC(=O)N2CCSc3ccccc32)c1	14	5
Cc1cc(=O)[nH]c(SCC(=O)NC(C)C2CC3CCC2C3)c1C#N (stereo not given)	1	0
COc1ccc(C(N)=NC#N)cc1	-4	-12
Cc1ccc(/C=C2/CCn3c2nc(=O)c2ccccc23)cc1	6	14
Cn1cc(C(=O)NCCCc2ccccc2)c2[nH]c(=O)n(Cc3ccccc3)c(=O)c21	3	3
CC(=O)c1ccc(N=c2oc3ccc(Cl)cc3cc2C(N)=O)cc1	-8	-13
Cc1ccc(OCCCCn2c(CCCO)nc3ccccc32)cc1	5	8
CC(C)OC(=O)CC(NC(=O)CCn1cccn1)c1ccccc1 (stereo not given)	2	1
COc1ccc(N2C(=O)CC(Nc3ccc4c(c3)NC(=O)CO4)C2=O)cc1OC (stereo not given)	10	1
O=S(=O)(NCCc1coc(-c2ccccc2)n1)c1ccc(F)cc1Cl	-1	0
O=C(/C=C/c1cccs1)N(CCCn1ccnc1)c1nc2ccc(F)cc2s1	-11	-17
COc1cccc(OC)c1-c1ccc(-n2cncc2C(=O)NCCF)cc1	33	37
CCc1nc2c(OCC(=O)C(C)(C)C)cccn2c1N(C)C(=O)COc1ccccc1	-2	-5
COCC(O)CN(CCN1CCOCC1)Cc1nc2scc(-c3cc(C)ccc3C)c2c(=O)[nH]1 (stereo not given)	-6	20
Cc1ccc(C(=O)N2CCN[C@H]3CS(=O)(=O)C[C@H]32)cc1NC(=O)C1CC1	4	4
COc1cc(Cl)ccc1C(=O)N1CCCC(CNS(=O)(=O)c2ccc(C)cc2)C1 (stereo not given)	-3	-4
CCOc1cccc(N2CCN(S(=O)(=O)c3ccc(C)cc3)C(C)C2=O)c1 (stereo not given)	-8	5
c1ccc(-c2ncn(C3CCNC3)c2-c2ccc(Sc3ncn[nH]3)o2)cc1 (stereo not given)	20	8
CCOCCCN1C(=O)C(=Cc2c(N3CCC(C)CC3)nc3ccc(C)cn3c2=O)SC1=S	1	-2
Cc1cc(-c2nnc(CCC(=O)NCc3cccc(C(F)(F)F)c3)o2)no1	7	4
O=C(Cc1cccc2ccccc12)NN=Cc1ccc(O)cc1	3	-2
CC(=O)Oc1c(-c2ccc(NC(=O)c3cccs3)cc2)c(-c2ccc(F)cc2)nn1-c1cc(C)ccc1C	5	9
CCOc1cccc2sc(N3CCN(C(=O)C4=COCCO4)CC3)nc12	-1	-2
CC(=O)Nc1ccc(Nc2nccc3c2cc(-c2ccsc2)n3C)cc1	-3	-3
Cc1ccn(-c2ccc(N3CCN(S(=O)(=O)c4ccccc4)CC3)nn2)n1	-5	-10
CCN1CCCN(S(=O)(=O)c2ccc(F)c(C#N)c2)CC1	8	4
CCC(CC)c1nnc(NC(=O)CC2CC3CCC2C3)s1 (stereo not given)	0	-2
COc1ccccc1C1c2c(oc3ccc(C)cc3c2=O)C(=O)N1c1nccs1 (stereo not given)	7	5
COCCN(Cc1nc(C(=O)N2CCN(c3ccc(OC)cc3)CC2)cs1)C(=O)Nc1cccc(Cl)c1	-2	3
c1cncc(CN2CN(CC3CCCO3)c3nc4ccccc4n3C2)c1 (stereo not given)	1	0
Cc1ccc(-c2nc(C=Nc3ccc4nc(NC(=O)C5CCCCC5)sc4c3)c(O)o2)cc1	-3	-8
COc1ccc(F)cc1-c1nccn1C(C)CCCC(C)(C)O (stereo not given)	1	-4
COCCn1c(C)cn2c3c(=O)n(CC(=O)OCc4ccccc4)c(=O)n(C)c3nc12	3	-1
c1sc2[n+](c1C13CC4CC(CC(C4)C1)C3)CCN2	-5	-5
COC(=O)c1ccc(N=CC(C#N)c2nc(-c3cccs3)cs2)cc1 (stereo not given)	9	8
COCc1cc(N2CCN(c3ccc(OC)cc3)CC2)nc(SCc2ccc(C(=O)N3CCOCC3)cc2)n1	10	9
CCCCN(CC(=O)Nc1cc(C(C)(C)C)nn1-c1ccc(OC)cc1)C(=O)Nc1ccc(F)c(Cl)c1	20	20
CCCCc1ccc(C(=O)N(CCCOC)CC(=O)N(Cc2cccn2Cc2ccccc2Cl)CC(C)C)cc1	-2	14
CN1CCN(C(=O)c2ccnc(N3CCN4CCN(C)CC4C3)c2)CC1 (stereo not given)	9	4
O=C(Cc1cccs1)N1C[C@H](Oc2ccccn2)[C@H]2C[C@@H]1Cc1c2[nH]c2ccccc12	28	26
CCOC(=O)C1CCCN(C(=O)c2ccc(Nc3c(Oc4cccc(C)c4)cnn(-c4ccccc4Cl)c3=O)cc2)C1 (stereo not given)	7	9
O=C(CSc1ccccc1)Nc1cccc(-c2cccc(-c3ccc4c(c3)OCCO4)n2)c1	7	4
Cc1ccc(N2CCN(C(=O)COc3ccc(Cl)cc3)C(C)C2=O)c(C)c1 (stereo not given)	-2	0
COc1ccccc1/C=C1\SC(=S)N(C(C(=O)O)C(C)C)C1=O (stereo not given)	-3	-10
CC(=O)N1CCc2cc(C(=O)C(C)OC(=O)c3nc4nc(C)cc(C)n4n3)ccc21 (stereo not given)	9	15

No new results follow: 19 of the compounds above.
SMILES	NPYLR7 agonist	NPYLR7 agonist max-min
CC(=O)Nc1ccc(Nc2nccc3c2cc(-c2ccsc2)n3C)cc1	-3	-3
Cc1ccn(-c2ccc(N3CCN(S(=O)(=O)c4ccccc4)CC3)nn2)n1	-5	-10
CCN1CCCN(S(=O)(=O)c2ccc(F)c(C#N)c2)CC1	8	4
CCC(CC)c1nnc(NC(=O)CC2CC3CCC2C3)s1 (stereo not given)	0	-2
COc1ccccc1C1c2c(oc3ccc(C)cc3c2=O)C(=O)N1c1nccs1 (stereo not given)	7	5
COCCN(Cc1nc(C(=O)N2CCN(c3ccc(OC)cc3)CC2)cs1)C(=O)Nc1cccc(Cl)c1	-2	3
c1cncc(CN2CN(CC3CCCO3)c3nc4ccccc4n3C2)c1 (stereo not given)	1	0
Cc1ccc(-c2nc(C=Nc3ccc4nc(NC(=O)C5CCCCC5)sc4c3)c(O)o2)cc1	-3	-8
COc1ccc(F)cc1-c1nccn1C(C)CCCC(C)(C)O (stereo not given)	1	-4
COCCn1c(C)cn2c3c(=O)n(CC(=O)OCc4ccccc4)c(=O)n(C)c3nc12	3	-1
c1sc2[n+](c1C13CC4CC(CC(C4)C1)C3)CCN2	-5	-5
COC(=O)c1ccc(N=CC(C#N)c2nc(-c3cccs3)cs2)cc1 (stereo not given)	9	8
COCc1cc(N2CCN(c3ccc(OC)cc3)CC2)nc(SCc2ccc(C(=O)N3CCOCC3)cc2)n1	10	9
CCCCN(CC(=O)Nc1cc(C(C)(C)C)nn1-c1ccc(OC)cc1)C(=O)Nc1ccc(F)c(Cl)c1	20	20
CCCCc1ccc(C(=O)N(CCCOC)CC(=O)N(Cc2cccn2Cc2ccccc2Cl)CC(C)C)cc1	-2	14
CN1CCN(C(=O)c2ccnc(N3CCN4CCN(C)CC4C3)c2)CC1 (stereo not given)	9	4
O=C(Cc1cccs1)N1C[C@H](Oc2ccccn2)[C@H]2C[C@@H]1Cc1c2[nH]c2ccccc12	28	26
CCOC(=O)C1CCCN(C(=O)c2ccc(Nc3c(Oc4cccc(C)c4)cnn(-c4ccccc4Cl)c3=O)cc2)C1 (stereo not given)	7	9
O=C(CSc1ccccc1)Nc1cccc(-c2cccc(-c3ccc4c(c3)OCCO4)n2)c1	7	4

The listing continues:
SMILES	NPYLR7 agonist	NPYLR7 agonist max-min
CC(C)C(CNS(=O)(=O)CC1CCCCC1)N1CCN(C)CC1 (stereo not given)	3	0
CC1(C)CC2CC(C)(CN2C(=O)c2cc3n(n2)CCN(Cc2c(F)cccc2Cl)C3=O)C1 (stereo not given)	9	-1
O=C(c1ccccc1)N1CCN(c2nc(-c3ccccc3)c3cc(Cl)ccc3n2)CC1	0	2
CC1CCCC(NC(=S)NC(=O)c2cncc(Br)c2)C1C (stereo not given)	1	-2
Cc1oc(-c2cccc(Cl)c2)nc1CN1CCCCC1c1cccnc1 (stereo not given)	8	-2
CCNC(=S)N1CCn2cccc2C1c1cc(OC)ccc1OC (stereo not given)	0	-2
Nc1ccc(-c2nc3cc(Cl)ccc3o2)cc1	5	1

Screening data as filed in PubChem.

The list is partial; count on the stated rates, not on these rows.
